# Anaer choline gr: blocks anaerobic gram-negative growth on choline. Gram-negative bacterium anaerobic choline minimal medium, absorbance growth; active compounds read low; many inactives read as strong as hits in the columns shown. calls only. hit rate 0.2% among 55,000. AID 1963822;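 active = growth z-score on choline under -2 at 7 or 20 h with little or no fall on glycerol, limits in tiers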;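 note: stock transfer was 300 nL into about 50 µL; the organism is E. coli; final concentration not given here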
# Anaer choline gr early: recorded beside Anaer choline gr, whose call it bears; z-score; measured here: choline growth z-score, timepoint 1;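 score of optical density at 7 h as mean of two plates; lower means less growth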
# Starred values were filed as active, the others as inactive; i = inactive; & = joins results of further samples.
No.	Molecule	Anaer choline gr	Anaer choline gr early
1	CCc1nc(SCC(=O)N2CCCCC2)c2c(=O)n(C)c(=O)n(C)c2n1	i	-0.46
2	Cc1cc(C)n(-c2nc3c(c(=O)n2CC(=O)N2CCOCC2)CCC3)n1	i	-0.29
3	Cc1c2cnn(CC(=O)N3CCC(Cc4ccccc4)CC3)c(=O)c2c(C)n1Cc1ccc(F)cc1	i	0.53
4	Cc1ccc(C)c(CN2CCCN(CC(=O)Nc3ccc(Br)c(C)c3)S2(=O)=O)c1	i	-1.2
5	Cc1ccc(-c2nn3c(=O)cc(CN4CCN(C(=O)Nc5ccc6c(c5)OCCO6)CC4)nc3s2)cc1	i	-0.4
6	Cn1c(=O)c2ccc(C(=O)NC3CCCC3)cc2n2c(SCC(N)=O)nnc12	i	-0.31
7	Cc1ccc(C(C)NC(=O)c2cccc(Oc3cc(-c4ccccc4)ncn3)c2)cc1 (stereo not given)	i	-0.01
8	COc1cc2c(cc1OC)n(CC(=O)c1cccc(Cl)c1)c(=O)n1nc(-c3ccccc3)nc21	i	-0.28
9	Cc1cc2n(n1)CC(C)(C(=O)NCc1ccccc1)N(c1ccc3c(c1)OCCO3)C2=O (stereo not given)	i	-0.99
10	C[C@]12CCC(=O)C=C1[C@@H]1C[C@@H]1C1C2CC[C@@]2(C)C1[C@@H]1C[C@@H]1[C@@]21CCC(=O)O1 (stereo not given in full)	i	0.33
11	Cc1ccc(NC(=O)CN2CCCN(Cc3ccc(Cl)cc3)S2(=O)=O)c(Cl)c1	i	-1.4
12	O=C(Nc1cc(F)c2nc(N3CCOCC3)ccc2c1)C1CCC1	i	-0.47
13	Cc1ccc2[nH]c3c(=O)n(CCC(=O)O)cnc3c2c1	i	1.2
14	CC(C)CC(NS(=O)(=O)c1ccc2[nH]c(=O)c(=O)[nH]c2c1)C(=O)O (stereo not given)	i	-0.71
15	CCCOc1cccc(C(=O)NCc2csc(-c3ccc(OC)cc3)n2)c1	i	1.4
16	COc1ccc(NC(=O)N2CCN(C(=O)Cc3csc4ccccc34)CC2)cc1OC	i	0.31
17	O=C(O)c1ccc(COc2ccc3ccc(=O)oc3c2)cc1	i	0.58
18	CCCn1nnc(NCc2ccc(-c3cccc(Cl)c3)o2)n1	i	-0.1
19	Cc1csc(-c2cc(S(=O)(=O)Nc3cc(F)ccc3F)cn2CC(=O)N2CCCC2)n1	i	0.65
20	COc1ccc(C(CNC(=O)c2ccccc2OC)N2CCCCC2)cc1 (stereo not given)	i	0.11
21	O=C(NCc1ccccc1)c1ccc2c(c1)N(Cc1ccccc1)CCS2	i	1.6
22	CCOc1ccccc1NC(=O)C(CC)n1c(=O)c(OCC)nc2cccnc21 (stereo not given)	i	0.43
23	COc1ccc(CNC(=O)CNC(=O)C2(C)Cn3c(cc4ccccc43)C(=O)N2C)cc1 (stereo not given)	i	-1.5
24	Cc1nc(-c2cc(S(=O)(=O)Nc3cc(F)ccc3F)c(C)s2)no1	i	-1
25	CC(C)CCNC(=O)CC(c1ccc(F)cc1)N1Cc2ccccc2C1=O (stereo not given)	i	1.2
26	CCn1nc(C)c(CCN(C)C(=O)Nc2ccc(Br)cc2)c1C	i	0.01
27	Cn1cc(NC(=O)NCCCN2CCN(c3ccccc3)CC2)c2ccccc2c1=O	i	-0.4
28	CCOC(=O)c1ccc(NC(=O)Cn2c(=O)nc(-c3ccccc3)c3ccccc32)cc1	i	-0.4
29	CCc1nc(-c2csc(S(=O)(=O)N3CCN(C(c4ccccc4)c4ccccc4)CC3)c2)no1	i	2.5
30	CC1CCN(C(=O)c2cc(NS(=O)(=O)c3ccc4c(c3)CCCC4)ccc2N2CCNCC2)CC1	i	-2.4
31	CC(=O)Nc1ccc(S(=O)(=O)N2CCCC2c2nc(-c3ccc(F)cc3)no2)cc1Cl (stereo not given)	i	-0.7
32	Cc1ccc(CC(=O)N2CCCC(c3nc4c(nnn4Cc4cc(C)ccc4C)c(=O)[nH]3)C2)cc1 (stereo not given)	i	0.8
33	O=C(Nc1ccc2c(c1)OCO2)c1nnc(C2CCCN2C(=O)C2CCCC2)s1 (stereo not given)	i	-0.08
34	Cc1ccc(C)c(N2CCN(C(=O)c3ccc(N4CCCC4)c(S(=O)(=O)N4CCCC4)c3)CC2)c1	i	-0.59
35	CC1CCN(S(=O)(=O)c2ccc(-c3nc(C#N)c(NC4CC4)o3)cc2)CC1	i	0.7
36	O=C(c1cccc(-n2cnc3cccnc32)c1)N1CCOCC1	i	-0.75
37	Cc1ccc(C2CCCCCN2C(=O)Nc2ccc(Br)cc2)s1 (stereo not given)	i	3
38	O=C(NC1CCCC1)c1ccc(-c2ccc(F)cc2)nc1	i	-1
39	CCc1ccc(NC(=O)Nc2nnc(CC(=O)NCc3ccccc3)s2)cc1	i	-0.7
40	CCOc1ccc(NC(=O)CCc2c(C)nc3nc(CN)nn3c2C)cc1	i	0.46
41	Cc1noc2nc(CCC(=O)NC3CCS(=O)(=O)C3)nc(N3CCOCC3)c12 (stereo not given)	i	-1.6
42	CC(C)(C)n1nc(Cc2cccc3ccccc23)c2c(N)ncnc21	i	-0.54
43	Cc1cccc(NC(=O)N2CCCC2C(=O)O)c1 (stereo not given)	i	0.09
44	COc1cc(C2NC(C(=O)O)CS2)ccc1OCC(N)=O (stereo not given)	i	-1.2
45	CCC(=O)Nc1ccc2c(c1)nc(CN1CCN(C)CC1)n2CC	i	0.25
46	CCOc1ccc(NS(=O)(=O)c2cc(C(=O)Nc3ccc(F)cc3)n[nH]2)cc1	i	-0.91
47	O=C(CNC(=O)c1ccc(-c2noc(C3CCCC3)n2)cc1)NC1CCCCC1	i	0.19
48	O=C(NC1CCCCC1)c1nc(-n2cnnc2)ccc1Br	i	-0.57
49	CCOC(=O)COc1ccc(CC)cc1C(=O)c1ccn2nc(-c3ccc(F)cc3)cc2n1	i	0.01
50	Cc1nn(C)c(C)c1CCN(C)C(=O)Nc1cccc(Br)c1	i	-1.7

# Random excerpt: two compounds from above.
No.	Molecule	Anaer choline gr	Anaer choline gr early
48	O=C(NC1CCCCC1)c1nc(-n2cnnc2)ccc1Br	i	-0.57
47	O=C(CNC(=O)c1ccc(-c2noc(C3CCCC3)n2)cc1)NC1CCCCC1	i	0.19

# Later entries
No.	Molecule	Anaer choline gr	Anaer choline gr early
51	CCC(C(=O)Nc1ccc2c(c1)OCCO2)n1nc(-c2ccc(C)cc2)c2c(c1=O)CCCC2 (stereo not given)	i	-1.2
52	CCN1CCN(CCNC(=O)Cn2ccc3c(C)nn(C)c3c2=O)CC1	i	-0.66
53	COc1ccc(NC(=O)c2nnc(C3CCN(C(=O)c4cccc(OC)c4)CC3)s2)cc1	i	-1.6
54	COc1ccccc1NC(=O)c1cc2c([nH]c1=O)CCCC2=O	i	0.64
55	NCC(=O)CCC(=O)O	i	0.71
56	c1ccc(-c2noc(-c3cccnc3N3CCN(c4ccc5c(c4)OCO5)CC3)n2)cc1	i	1.9
57	CCn1c(=O)n(CC)c2cc(NC(=O)Nc3cc(C)cc(C)c3)ccc21	i	-0.39
58	COCCn1c(=O)c2c(nc3n2CCCN3c2ccccc2)n(C)c1=O	i	-0.6
59	COc1ccc(NC(=O)c2ccc(-n3nc(Sc4ccc(F)cc4)ccc3=O)cc2)cc1OC	i	2
60	CCc1ccc(S(=O)(=O)Nc2cc(C(=O)O)cnc2N2CCN(c3cccc(C)c3)C(C)C2)cc1 (stereo not given)	i	-0.23
61	O=C(C1COc2ccccc2O1)N1CCN(c2nsc3ccccc23)CC1 (stereo not given)	i	-0.24
62	O=C(NCc1ccccc1)C1CCN(c2nnc(-n3cccc3)s2)CC1	i	0.73
63	CC1=C(c2ccc(F)cc2)S(=O)(=O)N=C1N1CCCN(S(=O)(=O)C(C)C)CC1	i	0.6
64	COC(=O)C1=CN(C2CC2)c2cc(N3CCC4(CC3)OCCO4)c(F)cc2S1(=O)=O	i	-0.42
65	Cc1cc(N2CCCC2)n2ncc(-c3ccc(F)cc3)c2n1	i	-1.9
66	O=C(NCCCN1CCN(c2ccccc2F)CC1)C1CCCN(c2nc3cccnc3s2)C1 (stereo not given)	i	-0.75
67	CCc1cccc(C)c1NC(=O)CSc1nc(=O)[nH]nc1C	i	-0.64
68	Cc1cc(C2CCCN2C(=O)NC(C)C)no1 (stereo not given)	i	0.38
69	COc1ccc(OC)c(NC2=NS(=O)(=O)C(c3ccc(C)cc3)=C2C)c1	i	0.85
70	Cc1ccccc1Nc1ncnc2onc(C)c12	i	0.47
71	c1ccc(N2CCN(c3ncnc4c3oc3ccccc34)CC2)cc1	i	1.5
72	Cn1cc(S(=O)(=O)N2CCCCC2)cc1C(=O)NC1CCCC1	i	0.65
73	CC(C)n1cnc2nc(CSc3ccc(NC(=O)Nc4cccc(Cl)c4)cc3)cc(=O)n21	i	1.6
74	CC(N)=NCc1cccc(CN)c1	i	-0.92&-1.1
75	CCSc1nn(CC(=O)Nc2cc(C)ccc2OC)c(N)c1S(=O)(=O)c1ccc(OC)cc1	i	-0.02
76	COc1cccc(NC(=O)c2cc(-c3cccnc3)on2)c1	i	0.74
77	CCN(C(=O)COC(=O)CSc1nc2ccccc2n1Cc1ccccc1)c1ccccc1	i	1.7
78	COc1cc(OC)cc(C(=O)NCCn2c(C(F)(F)F)nc3cccnc32)c1	i	-0.26
79	Cc1ccc(-c2cc(Nc3cccc(Br)c3)nc(C)n2)cc1	i	-1.7
80	OCCSc1nnc(CCSCc2ccccc2)n1Cc1ccccc1	i	0.5
81	CCC(C)Cn1c(C(O)c2ccccc2)nc2ccccc21 (stereo not given)	i	-0.22
82	CCCCN1C(=O)c2ccccc2CC1(C)C(=O)NCc1ccc(OC)cc1 (stereo not given)	i	-0.31
83	Cc1cc(N2CCC(NC(=O)Nc3ccccc3C)CC2)n2ncnc2n1	i	0.46
84	COc1cccc(CNC(=O)c2ccc(-c3noc(C4CCCN(C(=O)c5ccccc5)C4)n3)cc2)c1 (stereo not given)	i	2
85	CCCN(c1nc2nc(C)cc(C)n2n1)S(=O)(=O)c1ccc(C)cc1	i	0.56
86	O=C(Nc1ccccc1Cl)c1nc(-c2ccccc2)n(-c2ccccc2)n1	i	0.29
87	CC(C)c1cc(C2CCCN2C(=O)Nc2ccc3c(c2)OCCO3)on1 (stereo not given)	i	0.03
88	CCOC(=O)c1c(C)n(CC)c2ccc(OC(=O)c3ccc(Cl)cc3)cc12	i	-0.23
89	Cc1sc(-c2nnc(C3CC3)o2)cc1NC(=O)C1CCC1	i	0.94
90	CCc1cc(C2CCCN2S(=O)(=O)c2cccc(Cl)c2)on1 (stereo not given)	i	0.39

# Five compounds from above, arranged by molecular weight, rising.
No.	Molecule	Anaer choline gr	Anaer choline gr early
89	Cc1sc(-c2nnc(C3CC3)o2)cc1NC(=O)C1CCC1	i	0.94
83	Cc1cc(N2CCC(NC(=O)Nc3ccccc3C)CC2)n2ncnc2n1	i	0.46
86	O=C(Nc1ccccc1Cl)c1nc(-c2ccccc2)n(-c2ccccc2)n1	i	0.29
88	CCOC(=O)c1c(C)n(CC)c2ccc(OC(=O)c3ccc(Cl)cc3)cc12	i	-0.23
84	COc1cccc(CNC(=O)c2ccc(-c3noc(C4CCCN(C(=O)c5ccccc5)C4)n3)cc2)c1 (stereo not given)	i	2

# Later entries:
No.	Molecule	Anaer choline gr	Anaer choline gr early
91	COC(=O)CSc1nc2sc3c(c2c(=O)n1-c1ccccc1)CCCCC3	i	-1.7
92	CC(c1nnc(SCC(=O)Nc2ccccc2Br)n1C)N1C(=O)COc2ccccc21 (stereo not given)	i	-0.25
93	COc1ccc(CNC(=O)C2CCCN(C(=O)c3nnc(C(=O)Nc4ccc(F)cc4)s3)C2)cc1 (stereo not given)	i	-0.36
94	COc1ccc(C2CC(=O)Nc3c2c(C)nn3-c2ccc3nnc(C)n3n2)cc1 (stereo not given)	i	0.29
95	COc1ccc(NC(=O)c2nnc(C3CCN(C(=O)Nc4ccc(C)c(Cl)c4)CC3)s2)cc1	i	0.26
96	O=C(NCc1ccccc1)c1cc(NS(=O)(=O)c2ccc(Cl)cc2)ccc1N1CCNCC1	i	-0.84
97	CCCNC(=O)[C@H]1O[C@@H]1C(=O)N[C@H](C(=O)N1CCC[C@H]1C(=O)OC)C(C)CC (stereo not given in full)	i	0.39
98	Cn1c(C(=O)N2CCC(C(=O)NCc3ccccc3Cl)CC2)cc2oc3ccccc3c21	i	0.3
99	Cc1ccc(Cc2c(C)[nH]n(-c3nc(C)c(C(=O)N4CCCC4)s3)c2=O)cc1	i	0.57
100	O=C(Nc1ccccc1Cl)c1c(O)c2ccccc2[nH]c1=O	i	-0.36

# Gathered by group: those above with a furan ring, fused or not.
No.	Molecule	Anaer choline gr	Anaer choline gr early
18	CCCn1nnc(NCc2ccc(-c3cccc(Cl)c3)o2)n1	i	-0.1
71	c1ccc(N2CCN(c3ncnc4c3oc3ccccc34)CC2)cc1	i	1.5
98	Cn1c(C(=O)N2CCC(C(=O)NCc3ccccc3Cl)CC2)cc2oc3ccccc3c21	i	0.3

# Next part.
No.	Molecule	Anaer choline gr	Anaer choline gr early
101	CCC(=O)Nc1nc2cc(NC(=O)Nc3cccc(Cl)c3)ccc2s1	i	-0.84
102	Cc1ccc(C(=O)N2CCC(CC(=O)NCCc3c[nH]c4ccc(Cl)cc34)CC2)cc1	i	1.1
103	CCN(Cc1ccccc1)c1ccc(C(=O)O)cc1NS(=O)(=O)c1ccc(F)cc1	i	-1.9
104	O=C(c1ccc2c(c1)OCO2)N1CCC(c2nc(-c3ccc(F)cc3)no2)CC1	i	0
105	CCc1nc(-c2ccc3c(c2)CCN3C(=O)Cc2ccccc2Br)no1	i	-0.9
106	O=C(NC1CCCC1)C1CCN(c2ncnc3onc(-c4cccc(F)c4)c23)CC1	i	0.1
107	O=C(C1CCN(Cc2cnn(-c3ccccc3)c2-n2cccc2)CC1)N1CCN(c2ccccc2)CC1	i	-1.6
108	C=CCOc1ccc(C2CC(=O)Nc3c2cnn3-c2ccc3nnc(C)n3n2)cc1 (stereo not given)	i	-0.09
109	COc1ccc(-c2cnn3c(N)c(-c4ccccc4)cnc23)cc1OC	i	-0.3
110	Cc1cc2c(cc1C)N(CC(=O)Nc1ccc(Br)c(C)c1)C(=O)C1CCCC1=N2 (stereo not given)	i	0.5

# An excerpt. The share of hits here may be higher or lower than overall.
